Source: PubChem BioAssay (National Center for Advancing Translational Sciences (NCATS))
HPGD block – blocks human HPGD enzyme activity. P15428. hit rate 4.3% among 150,000. purified HPGD, NADH fluorescence kinetic, PGE2 substrate. Potency, µM, without a hit: at the top dose activity change, negative = inhibition, actives largely listed as inhibitors. AID 894; active = well fitted inhibition curve with a large enough effect (not every such curve was filed as active); inconclusive = small, poorly fitted or top-dose-only effect, or another doubt; inactive = no such curve, though single readings can be large or run the other way;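 also: top concentration of the series not given in the record; plate controls included wells without enzyme; inactives centre near -10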
Target sequence (P15428 whole entry, looked up): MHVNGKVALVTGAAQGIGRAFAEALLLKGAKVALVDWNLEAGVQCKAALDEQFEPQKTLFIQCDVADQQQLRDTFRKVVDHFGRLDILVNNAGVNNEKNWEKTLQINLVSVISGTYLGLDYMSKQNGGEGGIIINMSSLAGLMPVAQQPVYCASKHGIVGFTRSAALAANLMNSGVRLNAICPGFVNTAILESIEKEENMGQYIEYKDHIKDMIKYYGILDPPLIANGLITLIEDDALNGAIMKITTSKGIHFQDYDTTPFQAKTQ
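NADH formation kinetics: reaction with 30 uM PGE2 and 1 mM NAD+ (final), 20 nM enzyme, Tris-HCl pH 8 with Tween 20, after 15 min compound preincubation at room temperature. Fluorescence change, last versus first of five reads.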
* hit, by the source's call; ? = inconclusive; & = joins results of further samples. % is scaled to controls: 0 for no effect and ±100 for the full control effect; potency is read from the fitted curve at half-maximal effect. This is a subset. The share of hits here may be higher or lower than overall.

SMILES	HPGD block
CCOC(=O)CC(C(=O)OCC)C1CCCCC1=O (stereo not given)	-8.4%
CNC(=O)C1(CC(C)C)C=CCN1C(C)=O (stereo not given)	-3.8%&-10.0%
O=C(NCC(=O)N(c1ccccc1)C(C(=O)NC1CCCCC1)c1ccncc1)c1ccco1 (stereo not given)	-4.5%
COC(=O)c1ccc2c(c1)SC1=C(CCCC1=O)N2	39.8µM*
CCOCC(=O)Nc1nc2ccc(OC)cc2s1	-12.1%
Cc1ccc(NC2SC(=O)N(CC(=O)O)C2=O)cc1 (stereo not given)	-8.8%
Cc1nc2ccccc2c(=O)n1NC(=O)/C=C/c1ccc(Br)cc1	-11.8%
O=C(NCCN1CCCC1)c1ccc(Cn2c(=S)[nH]c3cc4c(cc3c2=O)OCO4)cc1	-19.0%
O=C(NCCN1CCN(c2ccccc2)CC1)c1cccc(Br)c1	0.1%
COc1ccc(-n2nc3cc(C)c(NC(=O)CC(C)C)cc3n2)cc1	?
COc1ccc2c(c1)c1nnc(SCC(=O)N3CCCCC3C)nc1n2C (stereo not given)	15.8µM*
O=C(CCCOc1ccccc1)Nc1ccc2c(c1)OCCO2	-10.1%
CCN(C(=O)COC(=O)/C=C/c1ccc(O)c(OC)c1)C1CCS(=O)(=O)C1 (stereo not given)	?
CCN(CCCNC(=O)CCn1c(=O)[nH]c2ccccc2c1=O)c1cccc(C)c1	-0.3%
CCSC1=N/C(=C\c2ccc(C)s2)C(=O)S1	-20.9%
Cc1ccc(S(=O)(=O)N2CCN(c3ccc([N+](=O)[O-])c(Sc4nncn4C)c3)CC2)cc1	-3.1%
COc1ccc(OC)c(S(=O)(=O)NC(C)(C)C)c1	-2.9%
Cn1cnnc1SCc1ccc(C(=O)n2ncc(C#N)c2N)cc1	-3.8%
CCn1ncc(C2C(C(=O)Nc3ccc(C)cn3)=C(C)NC3=C2C(=O)CCC3)c1C (stereo not given)	?
Cc1ccc(S(=O)(=O)N(CCC#N)CCN2CCCC2)cc1	-7.3%
O=S1(=O)CC(O)C(NCc2cccnc2)C1 (stereo not given)	-2.7%
COc1ccc(C(=O)n2nc(C)cc2C)cc1Br	-24.8%
CC1Oc2ccccc2N(CC(=O)N2CCc3ccccc32)C1=O (stereo not given)	-9.5%
COC(=O)[C@@H]1C[C@@]2(O)[C@H](O)[C@H](O)[C@H](O)C[C@H]2N1Cc1c(F)cccc1Cl	2.9%
COc1cccc(N=c2oc3c(C)ncc(CO)c3cc2C(=O)Nc2ccccc2OC)c1	-6.5%
O=C(CN1CCOCC1)Nc1c(-c2ccccc2)c2cc(Br)ccc2[nH]c1=O	-8.9%
O=C(CSc1nnc(-c2ccccc2F)n1C1CC1)Nc1cccnc1Cl	-7.7%
COc1cc(/C=C(\C#N)C(=O)NCC2CCCO2)ccc1OC(C)C (stereo not given)	-27.8%
Cc1ccccc1NC(=O)c1ccc(NS(=O)(=O)c2cc(C(C)(C)C)cc(C)c2C)cc1	-17.1%
C=CCn1c(=NC(=O)C2CCCCC2)sc2cc(NC(C)=O)ccc21	?
CC1(OC(=O)CCc2ccccc2)C(=O)C=C2C=C(c3ccc(C#N)cc3)N(CCc3ccccn3)C=C2C1=O (stereo not given)	-8.2%
N=c1ccn(Cc2ccc(Cl)c(Cl)c2)cc1	-5.5%
CCNC(=O)N1C(=O)C2(OCCO2)c2cc(Br)ccc21	-0.9%
COC(=O)C1CCN(C(=O)c2ccc(SC)cc2OC)CC1	1.8%
Cc1cccc(Oc2nc3ccccn3c(=O)c2/C=C(\C#N)C(=O)NC2CCS(=O)(=O)C2)c1 (stereo not given)	-11.6%
CCCCOc1ccc(Cc2c(Cl)nc(SC)nc2N2CCOCC2)cc1	?
O=C1C2CCCN2C(=O)N1CCCN1CCN(c2cccc(Cl)c2)CC1 (stereo not given)	-2.2%
COc1ccc(C(CC(=O)c2ccc(O)cc2)S(=O)(=O)c2ccc(C)cc2)cc1 (stereo not given)	-19.7%
Cc1cc(Nc2ccccc2)nn1C(=O)c1ccccc1	-19.1%
COc1ccccc1NC(=O)CN1CCC(n2nnc3cc(F)ccc32)CC1	-3.7%
Cc1cccc(N2CCN(C(=S)c3ccc(-c4ccccc4[N+](=O)[O-])o3)CC2)c1	-22.2%
O=C(O)c1ccc(COCC(F)(F)C(F)F)o1	-3.3%
Cc1csc(-c2cnn(-c3ccccc3)c2NC(=O)c2cccc(F)c2)n1	-4.6%
S=c1[nH]cc(-c2ccccc2)n1-c1ccccc1	25.1µM*
COc1ccc(C(C(=O)NC2CCCC2)N(C(=O)c2ccoc2C)c2ccc(C)cc2)cc1 (stereo not given)	-6.5%
C1CCC(CNc2c3c(nc4nnnn24)CCCC3)CC1	-19.0%
CN(Cc1ccccc1)C(=O)COC(=O)c1ccc(Cl)c(N)c1	?
CS(=O)(=O)N1CCC[C@@]2(CCN(c3ccccc3)C2)C1	-0.3%
C=CCOc1ccc(CNn2c(C)n[nH]c2=S)cc1OC	-16.0%
CCOc1ccc(-c2cn(S(=O)(=O)c3cccc4nsnc34)nc2N)cc1	-15.8%

(listing goes on)
SMILES	HPGD block
O=c1[nH]ncc2c3ccccc3n(Cc3ccc(F)cc3)c12	-14.0%
C/C(N)=C(/C#N)C(=O)CSc1nc2cc(Cl)ccc2c(=O)n1-c1ccc(C)cc1	-1.7%
CCSc1ccccc1C(=O)NCc1ccc(OC)cc1	2.51µM*
COc1ccccc1OCC(=O)Nc1ccc(S(=O)(=O)Nc2cc(C)nc(C)n2)cc1	-11.1%
COc1ccc(/C=N/NC(=O)c2[nH]c(C)c(C(=O)N/N=C/c3ccc(OC)cc3)c2C)cc1	-14.3%
Cc1ccc(-c2nnc3ccc(SCC(=O)Nc4cc(C)on4)nn23)cc1	-25.9%
Cc1ccc2nc(C3CCCN(C(=S)Nc4ccccc4C)C3)[nH]c2c1 (stereo not given)	-12.6%
CC(C)C(=O)Nc1nnc(-c2ccccc2)o1	-11.5%
COC(=O)c1c(N2C(=O)[C@H]3[C@@H](C2=O)[C@]2(C(=O)Nc4c2ccc(C)c4C)N2CCC[C@@H]32)sc(C)c1C	-6.7%
Cc1nc2ccc(NC(=O)c3cc(S(=O)(=O)N(C)c4ccccc4)ccc3Cl)cc2s1	-5.5%
COc1ccccc1N1N=C(c2cccs2)CC1c1ccccc1 (stereo not given)	?
COc1cc(C2=N/C(=C\c3ccccc3)C(=O)O2)cc(OC)c1OC	-19.9%
O=C(C1CCCO1)N1CCN(C(=S)Nc2ccccc2)CC1 (stereo not given)	-9.2%
OCCNc1nc(N2CCCC2)nc(N2CCCC2)n1	-8.7%
c1ccc(-n2ncc3c(N4CCN(c5ccccn5)CC4)nc(N4CCCCCC4)nc32)cc1	?
CSC(=NC#N)N1CCN(c2ccc(Cl)cc2)CC1	-15.7%
C=CCn1c(-c2cccc(OC)c2)nc2nc3ccccc3nc21	-14.4%
CCOc1ccccc1NC(=O)N1CCCC1C(=O)Nc1nnc(CC)s1 (stereo not given)	-7.0%
CCOc1ccc2nc(NC(=O)C3CCCN(S(=O)(=O)c4cccc5nonc45)C3)sc2c1 (stereo not given)	-14.6%
Cc1cc2nc3c(=O)[nH]c(=O)nc-3n(CC(O)C(O)C(O)CO)c2cc1C (stereo not given)	-13.8%&-9.1%&-28.0%&-28.3%

A second format for some results above.
structure | HPGD block
CCSc1ccccc1C(=O)NCc1ccc(OC)cc1 | 2.51µM*
COc1ccccc1OCC(=O)Nc1ccc(S(=O)(=O)Nc2cc(C)nc(C)n2)cc1 | -11.1%
COc1ccc(/C=N/NC(=O)c2[nH]c(C)c(C(=O)N/N=C/c3ccc(OC)cc3)c2C)cc1 | -14.3%
Cc1ccc(-c2nnc3ccc(SCC(=O)Nc4cc(C)on4)nn23)cc1 | -25.9%
Cc1ccc2nc(C3CCCN(C(=S)Nc4ccccc4C)C3)[nH]c2c1 (stereo not given) | -12.6%
CC(C)C(=O)Nc1nnc(-c2ccccc2)o1 | -11.5%
COC(=O)c1c(N2C(=O)[C@H]3[C@@H](C2=O)[C@]2(C(=O)Nc4c2ccc(C)c4C)N2CCC[C@@H]32)sc(C)c1C | -6.7%
Cc1nc2ccc(NC(=O)c3cc(S(=O)(=O)N(C)c4ccccc4)ccc3Cl)cc2s1 | -5.5%
COc1ccccc1N1N=C(c2cccs2)CC1c1ccccc1 (stereo not given) | ?
COc1cc(C2=N/C(=C\c3ccccc3)C(=O)O2)cc(OC)c1OC | -19.9%
O=C(C1CCCO1)N1CCN(C(=S)Nc2ccccc2)CC1 (stereo not given) | -9.2%
OCCNc1nc(N2CCCC2)nc(N2CCCC2)n1 | -8.7%
c1ccc(-n2ncc3c(N4CCN(c5ccccn5)CC4)nc(N4CCCCCC4)nc32)cc1 | ?
CSC(=NC#N)N1CCN(c2ccc(Cl)cc2)CC1 | -15.7%
C=CCn1c(-c2cccc(OC)c2)nc2nc3ccccc3nc21 | -14.4%
CCOc1ccccc1NC(=O)N1CCCC1C(=O)Nc1nnc(CC)s1 (stereo not given) | -7.0%
CCOc1ccc2nc(NC(=O)C3CCCN(S(=O)(=O)c4cccc5nonc45)C3)sc2c1 (stereo not given) | -14.6%

Other compounds:
SMILES	HPGD block
CCC(=O)N1CCN(c2nc(-c3ccc(Cl)cc3)cs2)CC1	-9.3%
CCn1c(SCC(=O)NC2CCCCC2)nc2c(c1=O)SC(C)C2 (stereo not given)	-4.7%
CCn1nc(NC(=O)c2ccccn2)c2cc3cccc(C)c3nc21	?
COc1ccc(Cn2c(/C=C/c3ccccc3)nc3ccccc32)cc1	?
COc1ccc(N(C(C)C(=O)NCc2ccco2)S(C)(=O)=O)cc1 (stereo not given)	-5.1%
Cc1cc(SCC(=O)c2ccc(Br)cc2)cc(C)[o+]1	-13.2%
O=C(O)CNC(=O)/C(=C/c1cccc([N+](=O)[O-])c1)NC(=O)c1ccco1	-4.6%
O=C(OCCCN1CCCC1)C1(c2ccccc2)CCCC1	-0.6%
COc1cc(C)c(C(C)C)cc1S(=O)(=O)NCCCn1ccnc1	1.7%
N#Cc1c(SCC(=O)N2CCCCC2)nsc1SCC(=O)N1CCCCC1	12.6µM*
CCCC(=O)O[C@]1(C(=O)CO)CCC2[C@@H]3CCC4=CC(=O)CC[C@]4(C)C3C(O)C[C@]21C (stereo not given in full)	3.3%
COc1ccc(OC)c(S(=O)(=O)N(C)CC(=O)N2CCc3ccccc3C2)c1	-11.4%
Cc1ccc(CNC(=O)CSc2nc(C)cc(C)c2C#N)cc1	-13.3%
CCOc1ccc(NC(=O)CN2CCN(CC(=O)Nc3ccc(F)c(F)c3)CC2)cc1	-6.1%
COc1ccc(-n2c(SC(CN3CCCCC3)CN3CCCC3=O)nc3ccccc3c2=O)cc1 (stereo not given)	-27.4%
O=C(COC(=O)c1cc(Br)ccc1Cl)NC1CC1	-28.4%
COCC(C)NC(=O)c1ccccc1OC(C)=O (stereo not given)	?
CC1CCCN(S(=O)(=O)c2cc(Cl)ccc2Cl)C1 (stereo not given)	-17.7%
Cc1cccc(CNc2ncnc3ccc(-c4cccc(C#N)c4)cc23)c1	?
CCn1c(SCc2cccc(C(=O)O)c2)nnc1-c1ccccc1	-0.3%
N#CCCN(C(=O)Nc1ccc(Cl)c(Cl)c1)c1ccccc1	-8.3%
O=C(c1cc(C(F)(F)F)cc(C(F)(F)F)c1)N1CCC2(CC1)CN(c1ccncc1)C2	-11.2%
CC1=C(C#N)C(c2ccoc2)C(C(=O)OCc2ccccc2)=C(N)S1 (stereo not given)	-18.1%
CCOC(=O)c1sc(=S)n(CC)c1NC(=O)CC	-5.4%
C=CC[C@@H](C(=O)O)c1ccccc1	-8.9%
Cc1ccc(-c2cc(N)n(-c3ccccc3)n2)cc1	-22.7%
Oc1ccc(-c2nccc(-c3cccs3)n2)cc1	-0.4%
O=C(CSCc1ccc(Cl)cc1)N/N=C/c1c(Cl)cccc1Cl	-13.0%
CCCCCCCCCCC(C)(C)C(=O)Nc1c(OC)cc(OC)cc1OC	-10.6%
O=C1C2CCC(C2)[C@@H]2CCCCN12 (stereo not given in full)	-12.1%
CC(=O)OCC1=C(C(=O)O)N2C(=O)[C@@H](NC(=O)Cc3cccs3)[C@@H]2SC1	-7.0%
COc1ccccc1NC(=O)N1CCN(c2ccccn2)CC1	-13.0%
CSc1nnc2c3cc(F)ccc3n(Cc3ccccc3)c2n1	-10.9%
COc1ccc(C2CC3CC(c4ccccc4)N2O3)cc1 (stereo not given)	-6.1%
COc1cccc(C(=O)NC(C)C(c2cccs2)N2CCOCC2)c1 (stereo not given)	-20.7%
O=c1c2ccccc2nc(SCc2cc(F)cc3c2OCOC3)n1Cc1ccco1	-23.9%
O=C1CS/C(=C\[N+](=O)[O-])N1c1ccccc1	-14.3%
Clc1ccc(CSc2nnc(NC3=NCCCCC3)s2)cc1	-13.2%
O=C(COC(=O)CCc1nc2ccccc2c(=O)[nH]1)NC(=O)NC1CCCC1	-8.4%
COc1cccc(-c2noc(CCC(=O)NC3CCCCC3)n2)c1	-20.5%
COC(=O)CCn1nnc(-c2ccc(C(C)C)cc2)n1	-23.1%
CCOC(=O)CNC(=O)Cn1cnc2c(nnn2-c2ccc(F)cc2)c1=O	-11.6%
CCOC(=O)c1sc(C)c(C(=O)NCCCN2CCOCC2)c1N	?
Cc1cc(-c2cccc([N+](=O)[O-])c2)nc2ccccc12	-8.4%
CCCCOc1cc(C(=O)NCCN(CC)CC)c2ccccc2n1	-26.1%&-10.9%&-14.9%
Cc1sc2cc(-c3cccc([N+](=O)[O-])c3)c(-c3cccc([N+](=O)[O-])c3)c[n+]2c1C	-3.8%
Cn1cccc1Cc1nnc(SCC(=O)Nc2ccc(F)cc2)n1CCc1ccccc1	-6.0%
NCCOC[C@H](N)C(=O)O	0.8%
Clc1ccc(SCCn2cncn2)cc1	-3.0%
O=C1CN(C(=O)c2ccccn2)c2ccccc2N1	-1.3%
CCc1ccc(NC(=O)CCc2nc3cccnc3n2Cc2ccc(OC)cc2)cc1	-4.7%
COCC(C)n1c(C)cc(C(=O)CN2C(=O)NC3(CCCCC3C)C2=O)c1C (stereo not given)	-5.5%
CCOC(=O)CSc1nc(-c2ccncc2)ccc1C#N	?
